Bioassay records (PubChem BioAssay)
Mtb growth – Mycobacterium tuberculosis H37Rv growth inhibition, cell based, confirmatory dose response (AID 1949); most inactive calls were filed without a number and no value below 0 was filed; actives 1.6% (n = 100,000); inhibition, % at 10 µg/mL; hits with a dose series show IC50 in µg/mL; M. tuberculosis H37Rv growth inhibition;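 active = confirmed in a dose series; inconclusive = about 50% or more but not retested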;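 also: bacteria grown 7 days with compound before Alamar blue readout; 0% = untreated bacteria and 100% = reference antibiotic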
Starred values were filed as active, the others as inactive; i = inactive; u = inconclusive.

SMILES | Mtb growth
CCn1cc(Br)c(C(=O)Nc2ccccc2C(C)(C)C)n1 | 1%
N#Cc1ccccc1CSc1nnc(Cc2cccc3ccccc23)n1-c1ccccc1 | 4%
CC(Oc1cccc(Cl)c1)C(=O)N1CCOCC1 (stereo not drawn) | i
O=C(CN1C(=O)/C(=c2/sc3nc4ccccc4n3c2=O)c2ccccc21)Nc1cccc(C(F)(F)F)c1 | i
Cc1ccccc1NC(=S)Nc1ccc(O)cc1 | i
O=C1CCCN1c1ccc(S(=O)(=O)N2CCC(c3ccccc3)CC2)cc1 | 5%
COc1ccc(/C=C2\C(=O)N(c3ccc(S(N)(=O)=O)cc3)N=C2C)cc1 | i
N#C/C(=C\Nc1ccc(Cl)cc1F)C(N)=S | i
CCc1cccc(CC)c1NC(=O)C(C)Sc1ccc(C)cc1 (stereo not drawn) | i
O=C(CN1C(=O)c2ccccc2C1=O)Nc1ccc2c(c1)C(=O)NC2=O | i
COc1cc(NC(=S)NCCc2ccccc2)cc(OC)c1 | 12%
CS(=O)(=O)N(Cc1ccc(Cl)cc1)c1ccc(C(=O)NCc2ccco2)cc1 | i
COc1ccc(NC(=O)c2ccccc2NC(=O)c2cccc(NC(=O)C(C)C)c2)cc1 | i
COc1cccc(OCC(O)CN2CCN(c3ccccn3)CC2)c1 (stereo not drawn) | i
O=C(O)C1CCC(CNS(=O)(=O)c2ccc(F)cc2)CC1 (stereo not drawn) | i
Cc1ccccc1NS(=O)(=O)c1ccc(Cl)s1 | i
O=C(NCCCN1CCN(c2ccc(F)cc2)CC1)NC12CC3CC(CC(C3)C1)C2 | i
Cc1ccc(C(=O)Nc2ccc(S(=O)(=O)NC3CCCCC3)cc2)cc1I | i
COc1ccc(-c2oc3ccccc3c(=O)c2OC(=O)CCc2ccccc2)cc1OC | i
NC(=O)c1c(NC(=O)COc2cccc3ccccc23)sc2c1CCCC2 | i
O=C(NC(=S)Nc1ccccc1N1CCOCC1)c1cccc(I)c1 | 1%
Cc1cc(C)c(NC(=O)C(F)(F)F)c(Cl)c1 | i
CCOC(=O)C(=O)Nc1ccccc1Sc1ccccc1 | i
CC(=O)Nc1ccc(Br)cc1C(=O)OCc1ccc([N+](=O)[O-])cc1 | i
O=C(NCc1ccc(Cl)cc1Cl)C1CCN(S(=O)(=O)c2ccccc2)CC1 | i
COc1ccc2c(Cl)c(C(=O)NC(=S)NC(C)c3ccccc3)sc2c1 (stereo not drawn) | i
O=C(CNC(=O)c1ccccc1)OC(c1ccccc1)c1ccccc1 | i
CC(C)CCSc1nc2c(c(=O)[nH]1)C(c1cccc(C(F)(F)F)c1)C1=C(CCCC1=O)N2 (stereo not drawn) | 16%
CCOc1ccc(C(C)NC(=O)c2cccc(F)c2)cc1 (stereo not drawn) | 2%
CCc1cccc(C)c1NC(=O)CN(C)S(=O)(=O)c1c(C)cc(C)cc1C | i

Quoted at random: 7 records from the list, in no set order.
SMILES | Mtb growth
Cc1ccc(C(=O)Nc2ccc(S(=O)(=O)NC3CCCCC3)cc2)cc1I | i
N#C/C(=C\Nc1ccc(Cl)cc1F)C(N)=S | i
CC(=O)Nc1ccc(Br)cc1C(=O)OCc1ccc([N+](=O)[O-])cc1 | i
CCc1cccc(CC)c1NC(=O)C(C)Sc1ccc(C)cc1 (stereo not drawn) | i
CC(C)CCSc1nc2c(c(=O)[nH]1)C(c1cccc(C(F)(F)F)c1)C1=C(CCCC1=O)N2 (stereo not drawn) | 16%
O=C1CCCN1c1ccc(S(=O)(=O)N2CCC(c3ccccc3)CC2)cc1 | 5%
O=C(NCc1ccc(Cl)cc1Cl)C1CCN(S(=O)(=O)c2ccccc2)CC1 | i

(further entries)
SMILES | Mtb growth
COC(=O)C1=C(c2ccccc2)NC(=S)NC1c1ccc(F)cc1 (stereo not drawn) | i
CC(=O)c1cc(-c2ccccc2)[nH]c1N1CCCC1 | i
COc1ccc(C(=O)CSc2nc(N)cc(=O)[nH]2)cc1OC | i
CC(=O)Oc1ccc2c(=O)c(Oc3ccc(Cl)cc3Cl)coc2c1 | i
O=C(O)c1ccccc1SCC(=O)N1CCOCC1 | 2%
O=C(Nc1ccc(Cl)cc1)c1ccccc1I | i
CCn1c(C)c(C(=O)Nc2ccc(OC)cc2)c2cc(OC)ccc21 | 1%
O=C(O)c1ccc(NC(=S)NC(=O)c2ccc3ccccc3c2)cc1 | i
COc1ccccc1N1CCN(C(=O)CN(c2ccccc2)S(=O)(=O)c2ccc(Cl)cc2)CC1 | i
CCC(=O)c1ccc(OC(=O)c2ccc(Br)o2)cc1 | i
Cc1ccc(C(=O)Nc2ccc3c(c2)OCO3)cc1C | 1%
NC(=O)c1c(NC(=O)C(c2ccccc2)c2ccccc2)sc2c1CCC2 | 0%
CC(=O)Nc1ccc(C(=O)n2cnc3cc(C)c(C)cc32)cc1 | i
CN(C)c1ccc(NC(=O)c2cc(I)ccc2Cl)cc1 | 3%
CN(C)S(=O)(=O)c1ccc(C(=O)NCCC23CC4CC(CC(C4)C2)C3)cc1 | i
C=CCn1c(SCC(=O)Nc2ccccc2N2CCOCC2)nnc1-c1cc(Br)ccc1O | i
O=C(COc1ccc(S(=O)(=O)NCCc2ccccc2)cc1)Nc1cccc([N+](=O)[O-])c1 | i
Cc1nc(SCc2ccc(Br)cc2)[nH]c(=O)c1C | i
Cc1ccc(CN(CC(N)=O)S(=O)(=O)c2ccc(Cl)cc2)cc1 | i
CCc1ccc(CC)c(S(=O)(=O)Nc2ccc(Br)cc2)c1 | i
CCCCC(=O)Nc1ccc(S(=O)(=O)Nc2nccc(C)n2)cc1 | i
O=C(CCn1c(=O)oc2ccccc21)Nc1nnc(SCc2ccccc2Cl)s1 | i
CCCCc1cc(=O)oc2c(C)c(OCC(=O)Nc3c(C)cccc3C)ccc12 | i
COc1cc(C(=O)N2CCN(S(=O)(=O)Cc3ccccc3)CC2)cc(OC)c1OC | i
C#CCOc1ccc(CO)cc1I | 4%
O=C(CC1NC(=O)NC1=O)Nc1cccc2ccccc12 (stereo not drawn) | i
OCCNc1nc(N2CCOCC2)ncc1F | i
COc1ccc(Br)cc1CN1CCN(C(=O)CC(C)C)CC1 | i
N/C(=N\OC(=O)Cc1cccs1)c1cccc([N+](=O)[O-])c1 | i
COc1cc(/C=C/c2ccc3cccc(O)c3n2)ccc1O | 0.27µg/mL*
CC(=O)Nc1ccc(-n2sc3c(c2=S)-c2cc(C)ccc2NC3(C)C)cc1 | 18%
Cc1ccc(C(C)(C)C)c(SCC(=O)Nc2nnc(C)s2)c1 | i
CCN=C(NS(=O)(=O)c1ccc(C)cc1)c1ccc(F)cc1 | i
COc1ccc(NC(=O)CN(c2ccc(I)cc2)S(C)(=O)=O)cc1OC | i
Cn1c2c(c(=O)n(C)c1=O)C(C(F)(F)F)(C(F)(F)F)N=C(c1cccc([N+](=O)[O-])c1)N2 | i
Cc1cc(Br)ccc1OCC(=O)NCCC1=CCCCC1 | u
COc1ccc(C)cc1S(=O)(=O)Oc1c(Cl)cccc1Cl | i
CCOC(=O)N1CCN(CC(O)COc2ccc(C)cc2C)CC1 (stereo not drawn) | i
Cc1ccc(C(C)C)c(OCC(=O)Nc2cc(C(F)(F)F)ccc2N2CCOCC2)c1 | i
CC(Oc1ccc(Cl)cc1Cl)C(=O)Nc1ccc2c(c1)C(=O)N(C)C2=O (stereo not drawn) | 0%
COc1cccc(N2C(=O)c3cccc4cc([N+](=O)[O-])cc(c34)C2=O)c1 | 11µg/mL*
Cc1ccc(S(=O)(=O)N(CC(=O)Nc2ccc3c(c2)OCCO3)Cc2cccc(Cl)c2)cc1 | i
Cc1ccc(N(CC(=O)Nc2ccc(Cl)cc2)S(=O)(=O)c2ccc(F)cc2)cc1 | i
CCCCNS(=O)(=O)c1ccc(NC(=O)CSc2ccccc2)cc1 | i
Cc1nnc(-c2ccc(Oc3ccc(Br)cc3)c([N+](=O)[O-])c2)o1 | 0%
COC(=O)Nc1scc(-c2ccc(Cl)c(Cl)c2)c1C#N | i
Cc1cccc(OCCCn2c(CO)nc3ccccc32)c1 | i
COC(=O)c1ccc(COC(=O)c2ccccc2C(=O)c2ccccc2)cc1 | i
CC(=O)c1ccc(NS(=O)(=O)c2cccc(C(F)(F)F)c2)cc1 | i
Cc1cc(C(F)F)n2ncc(C(=O)NCc3ccc(F)cc3)c2n1 | i
CCN(CC)CCCN1C(=O)C(=O)/C(=C(/O)c2cnn(-c3ccccc3)c2C)C1c1ccccc1 (stereo not drawn) | i
CCOC(=O)C1CCN(C(=O)Cc2c(F)cccc2Cl)CC1 | 2%
COc1ccc(N2CCN(C(=O)C(C)N(c3ccc(Cl)cc3)S(C)(=O)=O)CC2)cc1 (stereo not drawn) | i
CSc1ccccc1NC(=O)C1CCN(S(=O)(=O)c2ccc(Br)cc2)CC1 | i
C#CCOc1ccc(CNC(C)c2ccccc2)cc1OC (stereo not drawn) | i
CCc1ccc(NC(=O)C2CCN(S(=O)(=O)c3ccc(Cl)cc3)CC2)cc1 | i
CN(C)Cc1ccc(O)cc1 | i
CCOc1cc(S(=O)(=O)Nc2ccccc2CC)ccc1F | i
COc1cc(C(=O)Oc2ccccc2C(C)(C)C)cc(OC)c1OC | i
Fc1ccc(C2=CC(c3ccc(Cl)cc3Cl)n3ncnc3N2)cc1 (stereo not drawn) | i

Other compounds:
SMILES | Mtb growth
CCn1c(Cc2ccccc2)nnc1SCC(=O)NCCc1ccccc1 | i
Cc1ccc(OCC(=O)NC(=S)Nc2ccc([N+](=O)[O-])cc2C)c(Br)c1 | 4%
N#C/C(=C\c1cc(Br)ccc1F)c1nc2ccccc2[nH]1 | i
O=C(Nc1ccc(CN2CCOCC2)cc1)c1cccc(Br)c1 | i
Cc1ccc(C(=O)Nc2nc3ccc(Br)cc3s2)o1 | i
CCCC(=O)Nc1ccc(I)cc1CC | i
CCOc1ccc(C(=O)Nc2ccc(N3CCN(Cc4ccccc4Cl)CC3)cc2)cc1 | i
CCOc1ccc(OCc2ccc(C(=O)NC3CCCCCC3)o2)cc1 | i
COc1ccc(-c2cc(C(=O)Nc3ccc(F)c(F)c3)c3ccccc3n2)cc1OC | i
CC(=O)Nc1nc(-c2c(F)c(F)c(F)c(F)c2F)cs1 | i
Cc1ccc(C(C)C)c(OCCn2ncc3ccccc3c2=O)c1 | 3%
Cc1cc(Br)ccc1OCC(=O)Nc1ccc(S(=O)(=O)NC(C)(C)C)cc1 | i
CS(=O)(=O)N(CC(=O)NC1CCCCCC1)c1cc(C(F)(F)F)ccc1Cl | i
O=C(Nc1ccccc1)OCCOC(=O)Nc1ccccc1 | i
O=C(NN1C(=O)C2C3C=CC(C3)C2C1=O)c1cccnc1 (stereo not drawn) | i

As entered above:
In Mtb growth, O=C1CCCN1c1ccc(S(=O)(=O)N2CCC(c3ccccc3)CC2)cc1 is listed with 5%
In Mtb growth, Cc1ccc(C(=O)Nc2ccc3c(c2)OCO3)cc1C is listed with 1%

(further entries)
SMILES | Mtb growth
CCOC(=O)c1c(NC(=S)Nc2ccc(Br)cn2)sc(C)c1-c1ccccc1 | i
CC(C)c1ccccc1OCC(=O)N1CCN(C(=O)COc2ccccc2C(C)C)CC1 | i
CCOC(=O)c1sc2nc(-c3cccnc3)ccc2c1N | 1%
Cc1nc(-c2ccccc2)sc1C(N)=O | i
Cc1nnc(SCC(=O)Nc2ccc(C#N)cc2)s1 | i
CN(C(=O)c1ccccc1NC(=O)C(F)(F)F)c1ccccc1 | i
O=C(NC(=S)N1CCc2ccccc21)c1ccco1 | 5.6µg/mL*
COC(=O)CN(c1ccc(OC)c(OC)c1)S(C)(=O)=O | i
O=C(Nc1ccc([N+](=O)[O-])cc1)C1CC(=O)N(c2ccc(Br)cc2)C1 (stereo not drawn) | i
COc1cccc(C(=O)Nc2ccc(Oc3ccc4c(c3)C(=O)NC4=O)cc2)c1 | 2%
CC(C)(C)c1ccc(OCCCN2CCNCC2)cc1 | i
COC(=O)c1c(NC(=S)NC(=O)C2CCCC2)sc2c1CCC2 | i
CCCc1cc(=O)[nH]c(Nc2nc(C)c3ccc(OC)cc3n2)n1 | 1%
COc1ccc(C(=O)NCC2CCCO2)cc1I (stereo not drawn) | i
Cc1ccc(C(=O)NC(=S)Nc2ccc(S(=O)(=O)N(C)C)cc2)cc1I | i

Arranged by heavy-atom count (low to high): some entries from above
SMILES | Mtb growth
O=C(NC(=S)N1CCc2ccccc21)c1ccco1 | 5.6µg/mL*
COC(=O)CN(c1ccc(OC)c(OC)c1)S(C)(=O)=O | i
CCOC(=O)c1sc2nc(-c3cccnc3)ccc2c1N | 1%
COC(=O)c1c(NC(=S)NC(=O)C2CCCC2)sc2c1CCC2 | i

Carrying on:
SMILES | Mtb growth
CN(C)c1ccc(NC(=O)c2ccc3c4c(cccc24)CC3)cc1 | u
CCCn1c(CCc2ccccc2)nc2ccccc21 | 12%
CC1=C(C(=O)N(C)C)C(c2ccc(Cl)cc2)NC(=O)N1 (stereo not drawn) | i
C=CCn1c(=N)c(S(=O)(=O)c2ccc(Cl)cc2)cc2c(=O)n3cc(C)ccc3nc21 | i
COc1ccccc1Nc1nc(NCc2ccccc2)c2ccccc2n1 | 3.2µg/mL*
COc1cc(CNCCc2ccc(F)cc2)cc2c1OCO2 | 4%
CCOc1ccc(S(=O)(=O)N2CCc3ccccc32)c2ccccc12 | 11%
O=C(CCCN1C(=O)c2ccccc2C1=O)Nc1sc2c(c1C(=O)NCC1CCCO1)CCC2 (stereo not drawn) | 1%
COc1cccc(N(CC(=O)Nc2cccc(C(C)=O)c2)S(C)(=O)=O)c1 | i
O=C(CSc1nc2ccccc2[nH]1)N1CCOCC1 | i
S=C(NCCCN1CCN(c2ccc(Cl)cc2)CC1)Nc1cccc(Cl)c1 | 3µg/mL*
O=C(Nc1ccc(Cl)cc1C(=O)NCc1ccco1)c1ccco1 | 1%
C=CCNC(=O)c1ccccc1NS(=O)(=O)c1c(C)cc(C)cc1C | i
COc1cc(NC(=S)NCCSc2ccc(C)cc2)cc(OC)c1 | i
COc1ccc(C(=O)O)cc1NC(=S)NC(=O)c1cc(Cl)ccc1OC | i
COc1ccc(-c2cc(C(=O)N3CCN(c4ccc([N+](=O)[O-])cc4)CC3)c3ccccc3n2)c(OC)c1 | 36%

An excerpt. The share of hits here may be higher or lower than overall.
